Cruzain noTriton = cruzain (T. cruzi) inhibition without detergent | purified cruzain, Z-FR-AMC fluorescence, no detergent | Potency, µM, for the others: max response, negative = inhibition, usual class: inhibitors | 200,000 compounds, 2.3% hits;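 also: plate controls were enzyme without inhibitor for no effect and buffer without enzyme for full effect; nearly all actives have a fitted effect of over 40% in size; top concentration of the series not given in the record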
Target sequence (P25779 123-467 limits assumed): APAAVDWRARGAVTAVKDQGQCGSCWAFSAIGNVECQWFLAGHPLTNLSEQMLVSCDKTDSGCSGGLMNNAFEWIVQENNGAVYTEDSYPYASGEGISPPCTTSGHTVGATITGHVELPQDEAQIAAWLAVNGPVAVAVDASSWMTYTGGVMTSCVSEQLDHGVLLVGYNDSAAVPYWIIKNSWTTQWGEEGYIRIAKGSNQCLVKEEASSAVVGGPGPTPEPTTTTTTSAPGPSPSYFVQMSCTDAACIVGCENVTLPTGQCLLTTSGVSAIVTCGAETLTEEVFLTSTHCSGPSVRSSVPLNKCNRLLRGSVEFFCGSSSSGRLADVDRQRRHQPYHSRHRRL
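Purified cruzain at 1.5 nM, pre-incubated 15 min with compound at room temperature in 100 mM sodium acetate pH 5.5, 5 mM DTT, 0.00005% Triton X-100. Reaction started with 2 uM Z-FR-AMC; AMC fluorescence increase over 60 s gives rate.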
MARV entry inh = Marburg virus entry inhibition; Marburg virus pseudotyped entry inhibition, cell reporter; control for the full effect not named in the record; about a third of the inactives were read at about 46 µM; Potency, µM (highest dose often 37.8 µM), for the others: at the highest dose activity change, negative = inhibition, usual class: inhibitors; 300,000 compounds, 1.8% hits; AID 540276; active = well fitted inhibition curve with a large enough effect; inconclusive = small, poorly fitted or top-dose-only effect, or effect the other way; inactive = flat fitted curve, though single readings scatter; tested in HEK293 cells; about a fifth of its hits are not listed in these tables; also: % is scaled to controls: 0 for no effect and ±100 for the full control effect; luciferase read-out
RE007 growth inh = less growth of the S. pombe RE007 Vpr strain; S. pombe RE007 Vpr strain, BacTiter-Glo ATP luminescence, 24 h; control for the full effect not named in the record; Potency, µM (highest dose often 92.2 µM), for inactives: at the top dose activity change, negative = less growth; 360,000 compounds, 0.21% hits; active = well fitted falling curve with a large enough effect; inconclusive = small, poorly fitted or top-dose-only effect; inactive = no such curve, though single readings can be large or run the other way;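 also: % is scaled to controls: 0 for no effect and ±100 for the full control effect; nearly all actives have a fitted effect of over 50% in size; the assay follows cell death caused by Vpr and the record does not say whether a fall means rescue or toxicity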
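Fission yeast strain RE007, carrying one chromosomally integrated HIV-1 vpr copy, was seeded at OD 0.01 in PMG+AL medium with 23 nL pinned compound. After 24 h at 30 °C and 99% humidity, viability was read by BacTiter-Glo luminescence.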
NS1 inh = influenza NS1 inhibition; Potency, µM (highest dose often 46.1 µM), for the others: at the top dose activity, positive = more growth; 270,000 compounds, 0.4% hits; S. cerevisiae slowed by influenza A NS1, growth recovery by OD600; active means well fitted rising curve with a large enough effect; inconclusive means small, poorly fitted or top-dose-only effect; inactive means no such curve, though single readings can be large or run the other way; also: nearly all actives have a fitted effect of over 50% in size
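A cell-based growth assay was used: compounds that relieve NS1-induced slow growth of budding yeast raise OD600. Assay medium was yeast nitrogen base with ammonium sulphate and -URA supplement, pH 6.0, with 2% galactose.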
Cruzain inh Det = inhibitors of Trypanosoma cruzi cruzain with detergent; P25779; purified cruzain, Z-FR-AMC fluorescence, 0.01% Triton; Potency, µM, for the others: max response, negative = inhibition, usual class: inhibitors; 200,000 compounds, 0.43% hits;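 also: plate controls were neutral wells for no effect and buffer without enzyme for full effect; nearly all actives have a fitted effect of over 40% in size; top concentration of the series not given in the record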
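Detergent-containing run (0.01% Triton X-100) in acetate buffer pH 5.5 with 5 mM DTT: enzyme at 1.5 nM final, 15 min compound preincubation at room temperature, then 2 uM Z-FR-AMC substrate. Activity taken as 60 s fluorescence increase at 360/450 nm.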
SARS PLP yeast = blocks SARS-CoV papain-like protease in a yeast assay. Potency, µM (top dose mostly 32.9 µM), inactives show at the highest dose activity, positive = growth rescue. 330,000 compounds, 0.19% hits. AID 485353. S. cerevisiae expressing SARS-CoV PLpro, growth rescue; control for the full effect not named in the record; active means well fitted rising curve with a large enough effect; inconclusive means small, poorly fitted or top-dose-only effect; inactive means no such curve, though single readings can be large or run the other way; also: 0% is about no effect; nearly all actives have a fitted effect of over 55% in size; growth read by luminescence after 48 h
LASV entry inh = Lassa virus entry inhibition; 300,000 compounds, 1.2% hits; Lassa virus pseudotype entry inhibition, cell reporter; control for the full effect not named in the record; AID 540256; Potency, µM (series often up to 37.9 µM), for the others: at the highest dose activity change, negative = inhibition, usual class: inhibitors; active means well fitted inhibition curve with a large enough effect; inconclusive means small, poorly fitted or top-dose-only effect, or effect the other way; inactive means flat fitted curve, though single readings scatter; tested in HEK293 cells; also: % is scaled to controls: 0 for no effect and ±100 for the full control effect; nearly all actives have a fitted effect of over 50% in size; luciferase read-out
StopGo reporter = FMDV 2A StopGo reporter, luciferase signal | 410,000 compounds, 1.2% hits | human cells with a luciferase reporter of 2A StopGo recoding; control for the full effect not named in the record | Potency, µM (doses to about 57.9 µM), inactives show at the highest dose signal change, negative = less light; active = well fitted falling curve with a large enough effect; inconclusive = small, poorly fitted or top-dose-only effect; inactive = no such curve, though single readings can be large or run the other way; tested in HEK293T cells; also: % is scaled to controls: 0 for no effect and ±100 for the full control effect; nearly all actives have a fitted effect of over 45% in size; luciferase light after 4 h
Active calls of the source: *; ? = inconclusive; · = no result given; & = joins results of further samples; [ ] = remark or other dose. Unless noted, calls follow the shape of the dose curve; as a rule, active = well fitted curve in the direction sought with a large enough effect; inconclusive = small, poorly fitted or top-dose-only effect, or another doubt; inactive = no such curve, though single readings can be large; an effect the other way counts as inactive or inconclusive. Potency is read from the fitted curve at half-maximal effect.

SMILES	Cruzain noTriton	Cruzain inh Det	RE007 growth inh	LASV entry inh	MARV entry inh	NS1 inh	StopGo reporter	SARS PLP yeast
Cn1c(=O)c2sccc2n2c(CCC(=O)NCc3ccccc3Cl)nnc12	-8.7%	-0.4%	·	-0.1%[46.1 µM]	0.0%[46.1 µM]	·	0.0%	·
CCOC(=O)N/N=C(\c1ccccc1)C(O)c1ccccc1 (stereo not drawn)	·	·	-12.0%	13.5%	28.4%[46.1 µM]	5.6%	-13.6%	0.3%
Cc1nc2ccc(NC(=O)c3cc(S(=O)(=O)N4CCOCC4)ccc3C)cc2s1	11.2%	-7.6%	18.5%	-21.5%	?	-12.1%	?	2.6%
O=C(CCCOC(=O)c1ccc(O)cc1)c1ccccc1	·	·	-4.7%	?	9.6%	·	24.2%	-9.6%
Cn1c(=O)c2c(-c3ccccc3Br)n(CCc3ccccc3)cc2n(C)c1=O	2.0%	-4.6%	·	-19.9%[46.1 µM]	12.8%[46.1 µM]	·	?	·
COC(=O)c1ccccc1NC(=O)Cc1ccccc1OC	-19.9%	-3.0%	-4.2%	2.5%	5.1%	-11.3%	-17.9%	9.9%
CCOC(=O)N1CCN(c2c(NCCCN(C)c3ccccc3)c(=O)c2=O)CC1	-2.4%	-10.0%	-3.9%	·	·	-4.0%	-16.2%	2.5%
CC(Sc1nc(-c2ccccc2)cc(C(F)(F)F)n1)C(=O)N1CCCC1 (stereo not drawn)	6.1%	-1.4%	-4.4%	18.0%	0.9%	3.5%	?	-7.3%
N=c1n(CCOc2ccccc2)c2ccccc2n1CCN1CCOCC1	-1.1%	-0.6%	-7.6%	-3.4%	?	-2.9%	-16.9%	-5.8%
COc1ccc(C(=O)NC(=S)SCC(=O)O)cc1	·	·	14.3%	8.0%[46.1 µM]	2.5%[46.1 µM]	-7.5%	2.3%	-0.4%
CN1CCN(C2=Cc3ccccc3Sc3cc(F)c(F)cc32)CC1	-0.5%	-20.8%	-14.4%	?	?	-3.7%	?	4.7%
CCOc1ccc(NS(=O)(=O)c2cc(Cl)ccc2OC)cc1	-10.0%	-2.9%	1.9%	0.0%	?	-108.5%	-16.7%	·
CO/N=C(/CS(=O)Cc1ccccc1Cl)c1ccc(Cl)cc1Cl (stereo not drawn)	-12.3%	-4.1%	1.0%	?	-24.5%	-1.6%	·	6.4%
O=C(NCCOc1ccccc1)c1ccccc1	-3.9%	1.3%	8.0%	?	-18.9%	-17.8%	-16.0%	-2.0%
COc1ccccc1C(=O)NNC(=O)Cc1ccccc1	·	·	-7.0%	6.8%[46.1 µM]	3.3%[46.1 µM]	-2.2%	17.8%	0.1%
CCCCC1OC23CCCCC2C(C#N)(C(=N)O3)C1(C#N)C#N (stereo not drawn)	-1.5%	-0.2%	15.8%	-16.4%	6.5%	1.3%	25.1µM*	-25.0%
O=C(c1cccs1)N1CCN(C(=O)C2CCCO2)CC1 (stereo not drawn)	2.0%	-1.6%	-18.0%	2.1%	1.7%	5.5%	-3.1%	-0.5%
COc1ccc(S(=O)(=O)/C(C#N)=C/Nc2cccc(OC)c2)cc1	·	·	4.7%	-17.4%[46.1 µM]	-8.7%[46.1 µM]	0.9%	16.3%	1.6%
CC(Oc1ccc(Cl)cc1Cl)C(=O)Nc1ccc(N2CCN(C)CC2)cc1 (stereo not drawn)	7.2%	-2.7%	39.6%	?	11.6µM*	-0.7%	-14.4%	0.1%
CCOC(CNC(=O)C(=O)NCC(c1ccco1)N1CCN(c2ccc(OC)cc2)CC1)OCC (stereo not drawn)	·	·	-10.0%	·	·	-7.7%	-8.1%	11.9%
CSc1nc(-c2ccco2)nn1C(=O)CCc1ccccc1	-2.9%	8.3%	-3.6%	24.6%	11.3%	-2.7%	1.0%	1.9%
Cn1c(=O)c2c(nc(SCC(=O)N3CCCCCC3)n2C)n(C)c1=O	-1.7%	-1.8%	-7.2%	-26.1%	-1.7%	-11.6%	-17.3%	13.7%
COc1ccc([C@H](C)NC[C@H](O)c2ccc(O)c(NC=O)c2)cc1	·	·	2.6%	·	·	3.7%	-24.0%	0.1%
CCOc1ccc(CN(C)C(=O)CNC(=O)c2cc(OC)c(OC)c(OC)c2)cc1	·	·	-15.1%	·	·	0.1%	-20.2%	-2.2%

Next section (2 carried over from the part before).
SMILES	Cruzain noTriton	Cruzain inh Det	RE007 growth inh	LASV entry inh	MARV entry inh	NS1 inh	StopGo reporter	SARS PLP yeast
COc1ccc([C@H](C)NC[C@H](O)c2ccc(O)c(NC=O)c2)cc1	·	·	2.6%	·	·	3.7%	-24.0%	0.1%
CCOc1ccc(CN(C)C(=O)CNC(=O)c2cc(OC)c(OC)c(OC)c2)cc1	·	·	-15.1%	·	·	0.1%	-20.2%	-2.2%
O=C(c1ccc(S(=O)(=O)N2CCCCC2)cc1)N(c1ccccn1)C1CCCCC1	·	·	8.1%	22.7%	-10.4%[46.1 µM]	5.0%	-20.9%	0.7%
Cc1ccc(Cn2c(C(=O)O)c(CNC3CCCCCC3)c3ccc(C)cc32)cc1	?	-0.1%	·	7.0%[46.1 µM]	·	·	-1.2%	·
O=C(COc1ccc(S(=O)(=O)Nc2ccccc2)cc1)N1CCOCC1	-7.7%	1.0%	1.7%	5.5%	1.0%[46.1 µM]	-1.8%	-7.7%	1.3%
Nc1cccc2c1C(=O)N(C(=O)/C=C/c1cccc(Br)c1)C2=O	·	·	?	?	-27.6%[46.1 µM]	-33.9%	?	-2.5%
O=C(NCc1ccco1)c1cc(-c2cccs2)on1	0.5%	-1.1%	-6.7%	-28.1%	11.9%	-5.5%	70.5%[activator]	2.2%
CCc1ccc(S(=O)(=O)n2c(C)nc3ccccc32)cc1	·	·	6.8%	?	-8.9%	-1.6%	-9.1%	-10.3%
Cc1cc(OCc2cn3cccnc3n2)ccc1Cl	-5.3%	-5.0%	2.0%	?	?	10.7%	16.3%	-6.1%
O=c1[nH]c2cccnc2n1Cc1ccccc1	-12.6%	5.0%	9.5%	6.9%	1.4%	9.0%	11.7%	7.8%
CC1(C)C2CCC1(C)C(OC(=O)c1ccc(O)cc1)C2 (stereo not drawn)	·	·	?	·	·	-57.7%	-0.4%	-3.0%
Cc1cc([N+](=O)[O-])nn1CC(=O)N1CCCc2ccccc21	-1.6%	-1.2%	-9.4%	5.4%	15.5%	15.5%	7.6%	15.8µM*
COc1ccc(-c2cc(C(F)(F)F)n3nc(C(=O)N4CCOCC4)c(Cl)c3n2)cc1	14.0%	3.9%	6.3%	?	2.1%	-4.4%	0.0%	4.0%
CN(CCn1ccnc1)Cc1cn(-c2ccccc2)nc1-c1ccc2c(c1)OCO2	·	·	-10.7%	9.9%	?	9.0%	1.1%	-1.9%
O=C(O)COc1ccc2oc3c(c2c1)CCCC3	·	·	6.1%	·	·	-6.9%	-10.2%	-1.7%
O=C(Nc1nc2c(s1)CCCC2=O)c1cnccn1	-1.6%	-4.8%	0.3%	6.1%	?	-8.8%	0.0%	-1.0%
Brc1ccc(C2=CC(c3ccco3)n3ncnc3N2)cc1 (stereo not drawn)	-11.1%	-12.1%	-3.9%	-18.9%	-1.9%	-69.2%	-18.4%	-1.3%
CCOc1ccc(CCNC(=O)CCc2nc(-c3ccc(C)cc3)no2)cc1OCC	17.0%	2.0%	6.5%	0.2%	7.9%	0.4%	-9.6%	3.4%
CN(C)S(=O)(=O)c1ccc(NC(=O)CNc2cc(S(=O)(=O)N3CCCC3)ccc2OCC(F)(F)F)cc1	18.9%	-3.8%	0.5%	18.1%&7.7%	-7.6%&3.2%	15.8%	0.0%	12.8%
O=C(CN1CCN(Cc2ccccc2)CC1)Nc1ccc(S(=O)(=O)N2CCOCC2)cc1	14.4%	0.1%	-1.6%	-3.2%	24.2%	-4.8%	-19.4%	-15.2%
Cc1nn(C)c2c1c(C(F)(F)F)cc(=O)n2CC(=O)N1CCC(C)CC1	?	-5.4%	·	19.2%[46.1 µM]	·	·	-9.4%	·
CC1(C)CC(NC(=O)CSc2ccccc2)CC(C)(C)N1	·	·	9.6%	?	0.4%[46.1 µM]	·	-14.6%	0.2%
CCC1CCCCN1C(=S)NCc1ccccc1 (stereo not drawn)	9.4%	-1.8%	9.1%	-3.3%	?	-2.9%	21.1%	-14.6%
COc1ccc(S(=O)(=O)CCC(=O)NC2CCCCC2)cc1	-4.5%	-0.7%	7.4%	10.4%	5.4%	-8.7%	-14.0%	0.2%
O=Cc1cn[nH]c1-c1cccc([N+](=O)[O-])c1	·	·	-11.0%	1.0%[46.1 µM]	?	·	-3.0%	-2.2%
O=C(Cn1cnc2c(nnn2Cc2ccccc2F)c1=O)OCc1ccccc1	4.5%	0.0%	-2.9%	4.1%	?	0.9%	-0.8%	-8.2%
Cc1ccc(N(CC(=O)N2CCn3c2nc2ccccc23)S(=O)(=O)c2c(C)n[nH]c2C)cc1	?	3.2%	-14.4%	5.3%	-4.0%&13.0%	-43.8%	-15.1%	0.5%
COc1ccc(S(=O)(=O)CC2(O)CCN(C(=O)C(C)(C)C)CC2)cc1	·	·	9.6%	4.1%	14.1%[46.1 µM]	·	-7.3%	1.4%
CCN(CC)CCNC(=O)c1cc(-c2ccco2)nc2ccccc12	·	·	7.0%	-0.5%	8.4%[46.1 µM]	-6.6%	-11.6%	0.5%
O=C(c1cccc(Br)c1)c1cn(-c2ccccc2)nc1C(=O)c1ccccc1	?	2.1%	8.0%	-3.5%	3.1%	3.0%	-10.6%	6.9%

Screening results (PubChem)

Rows were taken by chance (roughly 4.8% active in at least one column).
